Bioassay records as filed in PubChem BioAssay.
RanGTP-Imp inh: inhibitors of RanGTP-importin-beta interaction, primary screen, biochemical, FRET, CFP-Ran, YFP-importin-beta, homogeneous; Ran GTPase (GTP-bound) - importin-beta complex; cell-free CFP-Ran/YFP-importin-beta FRET ratio; inhibition, % (test concentration not listed); hit rate 1.1% among 300,000;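 active = most replicates above 15%; inconclusive = exactly half above 15%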;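 note: 0% = DMSO wells and 100% = Ran loaded with GDP instead of GTP; wells of about 40 µL received 100 nL stock; the first replicate is given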
Calb FLC: C. albicans growth inhibition with fluconazole, primary screen, CaCi-2 strain, Alamar Blue fluorescence; hit rate 0.57% among 300,000; growth inhibition, % (no concentration beside the values); AID 1979, 2009; C. albicans CaCi-2 (fluconazole-resistant clinical isolate) + fluconazole, 48 h;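 active = most replicates above 75%; inconclusive = exactly half above 75%; inactive = most below 75%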;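 note: all wells also contain fluconazole at 8 µg/ml as a sub-toxic cotreatment; 0% = median of DMSO wells and 100% = median of geldanamycin control wells; wells of about 8 µL received 7.5 nL stock; the first replicate is given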
FGF22 binding: binders of human FGF22 protein, primary screen, FGF22 synaptogenesis inhibitor project, biophysical, thermal shift, single point; Fibroblast growth factor 22 (Homo sapiens), Q9HCT0; recombinant FGF22 thermal shift, SYPRO orange fluorescence; percent of sucrose octasulfate shift, DMSO zero; calls only at 9.99 µM; hit rate 1.5% among 340,000;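 active = melting point raised past a set limit in the mean and every replicate; inconclusive = no clear call; three in four hits are not shown here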
Target sequence (Q9HCT0 whole entry, looked up): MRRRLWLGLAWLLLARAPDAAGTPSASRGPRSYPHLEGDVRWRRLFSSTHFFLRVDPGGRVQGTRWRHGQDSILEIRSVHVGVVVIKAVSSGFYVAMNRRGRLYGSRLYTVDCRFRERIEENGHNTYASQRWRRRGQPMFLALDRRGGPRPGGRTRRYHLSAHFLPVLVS
rRNA inh HTS: reduced GFP signal of wild-type E. coli, primary screen, bacterial rRNA inhibitor project, GFP/RFP fluorescence, OD600, single point; E. coli WT GFP vs humanized-ribosome RFP mutants, 24 h; active compounds read low; DMSO median 0, no signal -100; GFP signal change (wild-type ribosome), % (test concentration not listed); hit rate 1.6% among 350,000;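 active = significant combined selectivity score with lowered wild-type GFP, culture density cut under 30%, mutant RFP and density less affected; inactive = any of these conditions unmet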; note: one replicate is shown; some compounds called inactive have numbers as strong as hits
ALR H2O2 inh: inhibitors of human ALR sulfhydryl oxidase, primary screen, biochemical, H2O2 detection, HRP-luminol luminescence, single point; FAD-linked sulfhydryl oxidase ALR (Homo sapiens), P55789; purified ALR, DTT oxidation; inhibition, % (concentration not given with the values); hit rate 3.8% among 290,000;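 active = mean and each replicate at 75% or more; inconclusive = only one of the two met; inactive = neither met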;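 note: stock transfer was 7.5 nL into about 7.5 µL; 0% = neutral wells and 100% = wells with inactivated enzyme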
Target sequence (P55789 whole entry, looked up): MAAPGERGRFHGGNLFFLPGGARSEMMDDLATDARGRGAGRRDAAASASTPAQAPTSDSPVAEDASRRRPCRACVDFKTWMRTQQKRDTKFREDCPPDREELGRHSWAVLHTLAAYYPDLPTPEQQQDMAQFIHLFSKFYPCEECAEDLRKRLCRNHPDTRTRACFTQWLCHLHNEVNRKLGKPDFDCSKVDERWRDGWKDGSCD
AF4-AF9 inh: inhibitors of AF4 peptide binding to AF9, primary screen, biochemical, AlphaScreen, biotin-AF4 peptide, FLAG-AF9, single point | Protein AF-9 (Homo sapiens), P42568 | hit rate 0.47% among 350,000 | inhibition, % at 10 µM;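 active = every replicate reaching a set inhibition limit, whatever the replicate mean, cut at about 25% in these data; inconclusive = mean inhibition reaches that limit but some replicates miss it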;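 note: 0% = plate neutral control median and 100% = total signal loss; the record names both 10 and 1 µM as test concentration; the first replicate is given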
Target sequence (P42568 whole entry, looked up): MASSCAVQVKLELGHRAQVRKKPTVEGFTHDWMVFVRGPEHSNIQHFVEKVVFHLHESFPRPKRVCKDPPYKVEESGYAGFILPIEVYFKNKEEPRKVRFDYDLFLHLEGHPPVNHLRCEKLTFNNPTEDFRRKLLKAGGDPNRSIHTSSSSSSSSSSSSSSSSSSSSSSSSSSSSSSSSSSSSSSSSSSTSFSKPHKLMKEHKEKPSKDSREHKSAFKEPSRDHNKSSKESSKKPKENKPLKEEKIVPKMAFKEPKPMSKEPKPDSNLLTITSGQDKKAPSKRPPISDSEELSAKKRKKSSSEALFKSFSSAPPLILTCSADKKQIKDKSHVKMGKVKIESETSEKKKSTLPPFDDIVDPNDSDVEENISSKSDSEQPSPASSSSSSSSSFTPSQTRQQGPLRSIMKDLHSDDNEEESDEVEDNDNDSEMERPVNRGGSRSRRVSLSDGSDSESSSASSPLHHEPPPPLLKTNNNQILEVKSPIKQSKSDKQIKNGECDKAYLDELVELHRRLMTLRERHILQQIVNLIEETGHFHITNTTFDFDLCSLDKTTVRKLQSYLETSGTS
T cruzi inh: inhibitors of intracellular T. cruzi growth, primary screen, luminescence, NIH3T3 host cells. hit rate 1.4% among 300,000. inhibition, % (test concentration not listed). T. cruzi beta-gal in NIH3T3, 90 h;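 active = mean inhibition across valid replicates above about 55%, limit read from the data; inconclusive = mean below that limit but half or more replicates reach it; inactive = mean below it, under half of replicates reach it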;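 note: signal also drops with host cell toxicity which is not excluded here; 0% = plate median of DMSO wells and 100% = zero luminescence signal; higher percent means less beta-gal luminescence so fewer parasites; stock transfer was 50 nL into about 50 µL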
Beta cell apopt: inhibitors of cytokine-induced beta cell apoptosis, primary screen, luminescence | INS-1E cytokine-induced death, ATP luminescence, 48 h; percent of positive-control rescue, neutral wells zero | protection from apoptosis, % (concentration not given with the values) | hit rate 0.8% among 300,000 | AID 435005, 2010;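 active = all replicates at 75% or more, or half of them and the mean; inconclusive = half reach 75% but not the mean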;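 note: 0% = cytokine-treated negative control wells and 100% = positive control rescue; higher means more ATP so stronger rescue from cytokine killing; wells of about 40 µL received 100 nL stock; the first replicate is given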
rRNA inh HTS OD600: recorded beside rRNA inh HTS, whose call it bears; OD600 change, %; measured here: OD600 growth;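 optical density of the mix in the first replicate; 0 = DMSO median and -100 = no signal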
rRNA inh HTS RFP: second read-out of rRNA inh HTS, no call of its own (marks repeat the call); RFP signal change, %; measured here: RFP humanized mutant strains;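 first replicate; 0 = DMSO median and -100 = no signal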
An asterisk follows results filed as active; i = inactive; ? = inconclusive; / = no result given; + = active, no number. A portion of the library; count on the stated rates, not on these rows.

Every second line gives: rRNA inh HTS RFP	Beta cell apopt	AF4-AF9 inh	RanGTP-Imp inh	Calb FLC	rRNA inh HTS	ALR H2O2 inh	rRNA inh HTS OD600	T cruzi inh	FGF22 binding
Cc1nnc2c3ccccc3c(Cl)nn12
    -12	-4	-2.9	-4.1	-3	8	6	6	-12	i
Cc1cc(NC(=O)Nc2cc(Cl)ccc2C)no1
    -4.8	-5	-0.1	-0.6	-5	2	25	-2	4	i
COc1ccc(Cl)cc1S(=O)(=O)N1CCCc2ccccc21
    1.9	/	-0.2	0.0	-4	-2	-4	-1	17	i
CCC1CCCCN1C(=S)NC(=O)c1cc(Br)ccc1Cl (stereo not given)
    -22	2	2.8	/	/	-52	8	-79	/	i
COC(=O)c1c(NC(=O)c2cccnc2)sc(C)c1C
    /	/	/	2.9	1	/	-8	/	4	/
Cc1nc2c(C(=O)N3CCOCC3)cnn2c(C)c1Cc1ccc(Cl)cc1
    /	-9	/	0.7	48	/	98*	/	8	/
CCN(CC(=O)Nc1ccc(NC(C)=O)cc1)C(=O)CCCc1c[nH]c2ccccc12
    -1.8	-2	1.8	/	/	3	62	5	/	i
O=C(C1CCN(S(=O)(=O)c2ccc(-n3cnnn3)cc2)CC1)N1CCN(c2ccccc2)CC1
    /	2	/	-0.1	-4	/	15	/	-19	/
COc1ccc(C(CC(=O)Nc2cc(OC)cc(OC)c2)n2cccc2)cc1 (stereo not given)
    /	-1	/	1.2	18	/	-3	/	56*	/
O=C(c1cc(-c2ccccc2)nc2ccccc12)N1CCCC1
    -0.5	-11	-2.3	-3.3	18	-1	3	-2	4	i
C=CCn1c(N2CCCC2)nc2c1c(=O)[nH]c(=O)n2C
    2.5	-5	-55	-1.5	0	8	22	3	-19	i
CC1CC(C)CN(C(=O)CCn2c(=O)oc3ccccc32)C1 (stereo not given)
    -0.8	-2	-0.4	0.0	10	6	-1	-2	2	i
CCC(=O)N(CCc1ccccc1)Cc1cc2ccc(OC)cc2[nH]c1=O
    0.3	-4	-2.3	3.8	-9	-7	-8	-12	12	i
COc1ccc(C(=O)NNC(=S)NC(=O)c2cc(-c3ccccc3)nc3ccccc23)cc1
    /	-1	/	-8.7	-3	/	-2	/	-12	/
Cc1cccc(N/C(N)=N/c2nc(C(F)(F)F)cc(=O)[nH]2)c1C
    -4.9	3	-4.7	5.4	-5	12	-2	14	-20	i
COc1ccc(NC(=O)CSc2nnnn2-c2ccccc2F)cc1
    7.2	-2	-1.5	2.3	-31	29	-10	20	-5	i
COc1ccccc1C(=O)C1CCCN(C(=O)c2cc(CC(C)C)nc(C)n2)C1 (stereo not given)
    -1.3	-2	-2.1	4.1	22	9	/	4	4	i
NC(=O)c1sc2nc3c(cc2c1N)CCC3
    1.6	-9	-0.3	-0.8	-3	8	5	4	16	i
CCc1ccc(NC(=S)N(CCOC)C2CCN(C(C)=O)CC2)cc1
    0.8	1	1.9	5.3	-3	6	/	7	-4	i
COc1ccc(-c2nc(CS(=O)CC(=O)NCc3ccc4c(c3)OCO4)c(C)o2)cc1 (stereo not given)
    -1.5	-11	-0.2	4.3	5	8	99*	-5	38	i
COc1ccc(NC(=O)c2ccc(COc3ccccc3Br)o2)cc1OC
    /	7	/	4.4	6	/	-45	/	6	/
Cc1ccc(S(=O)(=O)CC(=O)Nc2nc(-c3ccccc3)cs2)cc1
    /	-4	/	?	5	/	-3	/	-8	/
Cc1cc(C)c(-c2csc(Cc3nc(-c4cc5ccccc5oc4=O)cs3)n2)cc1C
    /	1	/	3.2	-5	/	-1	/	-13	/
Cc1cc(C)c(C(=O)C(C)OC(=O)Cc2n[nH]c(=O)c3ccccc23)cc1C (stereo not given)
    -1.8	-5	0.0	1.6	0	-4	2	-24	-8	i
C=CCn1c(SCc2nc3ccccc3c(=O)[nH]2)nnc1-c1cc2cc(Cl)ccc2o1
    /	10	/	-0.3	/	/	-6	/	28	/
Cc1ccc(CC(=O)NCCC(=O)O)cc1
    19	0	1.0	?	5	8	3	23	20	i
CC(=O)Nc1ccc(N(C(=O)CNC(=O)c2ccco2)C(C(=O)NC2CCCC2)c2ccco2)cc1 (stereo not given)
    12	4	-1.5	-1.9	-1	6	/	7	-9	i
Cc1onc(-c2ccccc2)c1C(=O)OCC(=O)N(C)c1c(N)n(Cc2ccccc2)c(=O)[nH]c1=O
    -0.7	1	-29	0.4	-2	2	-6	0	-9	i
COc1ccccc1CNCC(=O)N1CC(=O)Nc2ccccc21
    /	3	-1.1	-1.8	-3	/	0	/	-9	/
O=C(CNC(=O)c1ccccc1)NCC1COc2ccccc2O1 (stereo not given)
    /	0	/	5.9	5	/	34	/	-4	/
COc1ccc(C(CNC(=O)c2ccc(N3CCCC3=O)cc2)N(C)C)cc1 (stereo not given)
    /	-9	/	-2.7	-1	/	-4	/	-23	/
COc1ccc(CN(Cc2cccn2C)S(=O)(=O)c2ccc(C)cc2)cc1
    /	/	3.9	7.7	-12	/	/	/	29	i
COc1ccccc1CNC(=O)COc1ccc(S(=O)(=O)N2CCOCC2)cc1C
    0.5	-5	-4.0	-2.2	1	-5	1	-5	18	i
O=C(NCC1(N2CCOCC2)CCCCC1)c1ccc(S(=O)(=O)Nc2ccccc2F)cc1
    3.4	1	-0.3	3.3	-3	-6	-3	-3	6	i
CCN(CC)CCN(Cc1cc2ccc(C)cc2[nH]c1=O)C(=O)Nc1ccc(Cl)cc1
    4.0	-2	3.4	-2.3	8	-17	-15	-17	40	/
CC(=O)Nc1sc(N/N=C\c2ccccc2)nc1-c1cccs1
    5.9	-2	13	4.4	-6	10	13	10	-11	/
CC(=O)Nc1ccc(S(=O)(=O)Nc2ccc(S(=O)(=O)N3CCCCCC3)cc2)cc1
    /	-6	/	0.6	6	/	-9	/	-2	/
CSc1ccccc1C(=O)C1CCCN(S(=O)(=O)c2c(C)noc2C)C1 (stereo not given)
    -0.3	-2	5.1	-0.4	8	-12	-11	-16	6	i
COc1ccccc1Cc1nc(-c2cccnc2)no1
    -1.1	-12	-1.6	2.5	9	0	-3	2	-6	i
CCCn1c(O)c(/C=C2\C=NN=C2c2ccccc2)sc1=S
    /	6	/	1.5	21	/	-3	/	28	/
COc1cc2c(cc1OC)CN(C(=O)CN1C(=O)c3ccc([N+](=O)[O-])cc3C1=O)CC2
    -4.2	-4	-14	5.1	-4	12	21	14	25	i
CN(CC(=O)Nc1c(Cl)cccc1Cl)C(=O)Cc1ccsc1
    /	4	-2.0	/	/	/	-5	/	/	i
COc1ccccc1-c1c(C)nn2c(N3CCCCCC3)cc(C)nc12
    -14	/	5.7	3.5	2	-57	/	-73	43	i
COc1ccc([N+](=O)[O-])cc1/C=N/NC(=O)CNC(=O)c1cccc(F)c1
    -0.5*	-8	8.6	2.4	11	-23*	4	15*	-13	i
CCOC(=O)c1ccc(NC(=O)CCC(CC)C(=O)O)cc1 (stereo not given)
    /	-1	/	4.5	0	/	-18	/	-20	/
Cc1cccc(CN2[C@@H](CC(C)C)COCCS2(=O)=O)c1
    -2.9	-2	-0.6	?	3	4	-1	4	2	i
Cc1onc(-c2c(F)cccc2Cl)c1C(=O)N1CCc2ccccc21
    -10	-4	-3.5	-0.5	11	-42	-3	-58	19	i
O=c1oc(-c2ccccc2F)nc2c1cnn2-c1ccccc1
    /	/	/	?	-30	/	9	/	-14	/
NC(=O)c1ccc2c(=O)n3c(-c4cc(Cl)c(N)c(Cl)c4)csc3nc2c1
    8.2	-1	-4.9	-9.0	2	16	-6	8	-11	i
CCN1C(=O)[C@H]2[C@@H](c3ccc(-c4cc(C(C)=O)cs4)cc3)N3CCCC[C@@]3(C(=O)OC)[C@H]2C1=O
    -2.3	8	-4.0	/	/	4	/	11	/	i
COc1cc(/C=C2/S/C(=N/S(=O)(=O)c3ccccc3)NC2=O)c([N+](=O)[O-])cc1OC
    /	6	/	-9.0	-2	/	/	/	-12	/
CC(C)(C)NCC(O)Cn1cc(C=O)c2ccccc21 (stereo not given)
    -5.8	-6	-17	-4.8	0	3	5	-1	-10	i
OCC[C@@H]1C[C@H](O)[C@@H](O)[C@@]2(Cc3ccccc3O2)O1
    -2.8	2	1.4	-2.5	0	3	0	2	-3	i
CCOc1ncccc1C(=O)OCC(=O)c1cccs1
    -7.3	-3	3.0	-2.6	9	-7	2	-4	-10	i
Cc1ccc(OCCNC(=O)c2cc(-n3cnnc3)ccc2Cl)cc1C
    /	-7	/	-0.4	0	/	-1	/	-10	/
COc1ccc(C(O)c2coc3ccc(O)c(CN(C)C)c23)cc1 (stereo not given)
    /	2	/	-0.5	-2	/	4	/	-21	/
CCc1ccc(NC(=O)Cn2c(=O)oc3cc(S(=O)(=O)N4CCOCC4)ccc32)cc1
    -1.1	-7	5.5	-0.1	-12	0	/	4	-8	i
CCc1nc2ccccc2n(CC)c1=O
    /	-3	/	-0.9	-2	/	-3	/	1	/
C=CC[C@H](CC(=O)NCCO)C(=O)N[C@@H](COC(=O)[C@@H](CC=C)Cc1ccc(F)cc1)Cc1c[nH]c2ccccc12
    0.3	6	/	/	/	-13	7	-20	/	i
CCC(=O)Nc1ccc(C(=O)OCc2ccc(Cl)c(Cl)c2)cc1
    /	2	-1.0	-3.2	-2	/	-13	/	45	i

(continued)
Every second line gives: rRNA inh HTS RFP	Beta cell apopt	AF4-AF9 inh	RanGTP-Imp inh	Calb FLC	rRNA inh HTS	ALR H2O2 inh	rRNA inh HTS OD600	T cruzi inh	FGF22 binding
N#CC1=C(N)c2ccccc2CC12CCCCC2
    -12	-2	-30	2.6	-6	-55	30	-65	18	i
Nc1ccc(C(=O)OCc2nc3c(ccc4ccccc43)[nH]2)cc1
    /	4	/	-1.6	-10	/	-23	/	0	/
O=C(Nc1nnc(-c2ccccc2F)s1)c1ccccc1F
    0.7	-4	-0.3	3.5	-5	2	-2	7	-6	+
COc1cc(CN2CCCC(C(=O)Nc3ccccc3Oc3cccnc3)C2)ccc1F (stereo not given)
    0.1	0	-16	0.1	-4	-1	-4	-3	49	i
COc1ccc2c(c1)C=C(CN1CCC(CO)(CCc3ccccc3)CC1)CO2
    17	-4	15	-0.8	14	-14	0	-19	45	i
